High-throughput results as filed in PubChem BioAssay.
Env fusion inh: inhibitors of HIV Env-mediated cell fusion; AID 651610; HeLa-JRFL Env/CEM21 cell fusion, luciferase; actives 1.1% (n = 360,000); inhibition, % at 12.3 µM;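 active means mean replicate inhibition score of at least 50 and every replicate individually at or above 50; inconclusive means only one of the two criteria met; inactive means mean below 50 and not all replicates reaching 50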;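 further: 0% = plate neutral controls and 100% = maraviroc near 300 nM; one replicate is shown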
Active calls of the source: *; ? = inconclusive; [ ] = another dose, or the depositor's remark.

Env fusion inh | compound
5[16.7 µM] | Cc1ccc(S(=O)(=O)N2C[C@@H]3O[C@H](CNS(=O)(=O)c4ccccc4C)CC[C@@H]32)cc1
2[16.7 µM] | CN1c2ccc(-c3cccc(C#N)c3)cc2[C@@H]2[C@@H](CCN2C(=O)C2CCCCC2)[C@@H]1CO
-6[16.7 µM] | COc1cccc(CN(C)C[C@H]2OCc3cn(nn3)CCCC(=O)N([C@H](C)CO)C[C@@H]2C)c1
29 | COC(=O)C1=C(C)N(C)C(=NCc2ccc(C(F)(F)F)cc2)NC1c1cccc(Cl)c1 (stereo unspecified)
-3[16.7 µM] | CN1CCN(C(=O)C[C@@H]2C=C[C@@H](NC(=O)Nc3ccccc3F)[C@H](CO)O2)CC1
-4[16.7 µM] | C[C@@H]1CN([C@H](C)CO)C(=O)c2cccc(NC(=O)Nc3cccc4ccccc34)c2O[C@H]1CN(C)S(=O)(=O)c1ccc(F)cc1
35[16.7 µM] | C[C@@H]1CCCCO[C@H](CN(C)C(=O)Nc2cccc3ccccc23)[C@@H](C)CN([C@@H](C)CO)C(=O)c2cc(N(C)C)ccc2O1
-10[16.7 µM] | C/C=C/c1ccc([C@H]2[C@H](CO)N(C(=O)CN(C)C)C23CN(C(=O)C2CC2)C3)cc1
-13[16.7 µM] | Cc1ccc(S(=O)(=O)Nc2cccc3c2O[C@@H](CN(C)C(=O)Nc2cccc4ccccc24)[C@@H](C)CN([C@H](C)CO)C3=O)cc1
8[16.7 µM] | CN1C(=O)c2cc(NC(=O)Cc3cccs3)ccc2OC[C@H]2O[C@H](CC(=O)NCCc3ccncc3)CC[C@@H]21
18 | COc1ccc2c(c1)[C@@H](NC(=O)c1ccncc1)[C@@H]1Cc3ccccc3[C@H]21
7[16.7 µM] | C[C@H]1CN([C@@H](C)CO)C(=O)c2cc(C3=CCCC3)cnc2O[C@H]1CN(C)C(=O)c1ccc2c(c1)OCO2
15[16.7 µM] | C[C@H](CO)N1C[C@H](C)[C@H](CN(C)C(=O)Nc2ccc3c(c2)OCO3)OCCCC[C@H](C)Oc2ccc(N(C)C)cc2C1=O
-3 | CC(=O)N1CCN(c2ccc(N3CCN(Cc4ccccc4)[C@H](C)C3)c(C)c2)[C@H](C)C1
-4[16.7 µM] | C[C@H]1CN([C@@H](C)CO)C(=O)c2cccc(NS(C)(=O)=O)c2O[C@@H]1CN(C)Cc1ccc2c(c1)OCO2

Laid out differently: results already given
C[C@H](CO)N1C[C@H](C)[C@H](CN(C)C(=O)Nc2ccc3c(c2)OCO3)OCCCC[C@H](C)Oc2ccc(N(C)C)cc2C1=O
  Env fusion inh: 15[16.7 µM]

CC(=O)N1CCN(c2ccc(N3CCN(Cc4ccccc4)[C@H](C)C3)c(C)c2)[C@H](C)C1
  Env fusion inh: -3

An excerpt from further up:
Env fusion inh | compound
5[16.7 µM] | Cc1ccc(S(=O)(=O)N2C[C@@H]3O[C@H](CNS(=O)(=O)c4ccccc4C)CC[C@@H]32)cc1
2[16.7 µM] | CN1c2ccc(-c3cccc(C#N)c3)cc2[C@@H]2[C@@H](CCN2C(=O)C2CCCCC2)[C@@H]1CO
-6[16.7 µM] | COc1cccc(CN(C)C[C@H]2OCc3cn(nn3)CCCC(=O)N([C@H](C)CO)C[C@@H]2C)c1
29 | COC(=O)C1=C(C)N(C)C(=NCc2ccc(C(F)(F)F)cc2)NC1c1cccc(Cl)c1 (stereo unspecified)
-3[16.7 µM] | CN1CCN(C(=O)C[C@@H]2C=C[C@@H](NC(=O)Nc3ccccc3F)[C@H](CO)O2)CC1
-4[16.7 µM] | C[C@@H]1CN([C@H](C)CO)C(=O)c2cccc(NC(=O)Nc3cccc4ccccc34)c2O[C@H]1CN(C)S(=O)(=O)c1ccc(F)cc1
35[16.7 µM] | C[C@@H]1CCCCO[C@H](CN(C)C(=O)Nc2cccc3ccccc23)[C@@H](C)CN([C@@H](C)CO)C(=O)c2cc(N(C)C)ccc2O1

Later entries.
Env fusion inh | compound
-21 | COc1ccc(N2C(=O)c3[nH]nc(-c4ccccc4)c3C2c2ccc(Br)cc2)cc1 (stereo unspecified)
1[16.7 µM] | C[C@@H]1CN([C@H](C)CO)C(=O)c2cc(NS(=O)(=O)c3cn(C)cn3)ccc2O[C@@H](C)CCCCO[C@H]1CN(C)C
-38[16.7 µM] | C[C@H]1CN([C@@H](C)CO)C(=O)c2cccc(NC(=O)Nc3cccc4ccccc34)c2O[C@H]1CN(C)Cc1ccc2c(c1)OCO2
28[16.7 µM] | COc1ccccc1S(=O)(=O)N(C)C[C@@H]1OCc2ccccc2-c2c(n(C)c3ccccc23)C(=O)N([C@@H](C)CO)C[C@@H]1C
-29[16.7 µM] | COc1ccc2c3c(n(C)c2c1)[C@H](CO)N(CC1CCOCC1)CC31CCN(C(C)=O)CC1
4[16.7 µM] | CCS(=O)(=O)Nc1ccc2c(c1)C(=O)N(C)C[C@@H](OC)[C@H](C)CN(CC1CCCC1)[C@H](C)CO2
0[16.7 µM] | CCCNC(=O)Nc1ccc2c(c1)C(=O)N(C)C[C@H](OC)[C@@H](C)CN(Cc1ccccn1)[C@@H](C)CO2
4[16.7 µM] | CNC[C@H]1OCCCC[C@H](C)Oc2ccc(NC(=O)CCC(F)(F)F)cc2C(=O)N([C@H](C)CO)C[C@@H]1C
11[16.7 µM] | C[C@@H]1CN([C@@H](C)CO)C(=O)c2cccc(NS(=O)(=O)c3ccccc3)c2O[C@@H]1CN(C)S(=O)(=O)c1cccs1
3[16.7 µM] | O=C(NC1CCC1)[C@H]1[C@H](CO)[C@H]2Cn3c(cccc3=O)[C@@H]1N2Cc1cc(F)ccc1F
21[16.7 µM] | COCCNC(=O)C[C@@H]1CC[C@@H]2[C@H](COC[C@@H](O)CN2Cc2cccc(-c3ccncc3)c2)O1
-20[16.7 µM] | CN(C)C(=O)[C@H]1[C@H](CO)[C@H]2Cn3c(ccc(/C=C/c4ccccc4)c3=O)[C@H]2N1CC1CC1
15[16.7 µM] | CN1c2ccc(C#Cc3cccnc3)cc2[C@@H]2[C@@H](CCN2C(=O)C2CCC2)[C@H]1CO
6[16.7 µM] | CC(C)NC(=O)Nc1cccc2c1O[C@H](CN(C)C)[C@H](C)CN([C@H](C)CO)C2=O
-22[16.7 µM] | COc1ccccc1C(=O)Nc1ccc2c(c1)OC[C@H](C)N(C(C)=O)C[C@H](C)[C@@H](OC)CN(C)C2=O
12[16.7 µM] | CCS(=O)(=O)Nc1ccc2c(c1)C(=O)N(C)[C@@H]1CC[C@H](CC(=O)NCCOC)O[C@@H]1CO2
36[16.7 µM] | C[C@H](CO)N1C[C@H](C)[C@@H](CN(C)Cc2ccc3c(c2)OCO3)OCc2ccccc2-c2ccccc2C1=O
-4[16.7 µM] | C[C@@H]1CN([C@H](C)CO)C(=O)c2cccc(NC(=O)c3cnccn3)c2O[C@H]1CN(C)S(=O)(=O)c1ccc(F)cc1
4[16.7 µM] | NC(=O)NCC#Cc1ccc2c(c1)[C@]1(C(=O)N2)[C@H](c2ccc(OCCO)cc2)N2[C@H](c3ccccc3)[C@H](c3ccccc3)OC(=O)[C@H]2[C@@H]1C(=O)O
1[16.7 µM] | CCCC(=O)Nc1ccc2c(c1)C(=O)N(C)C[C@H](OC)[C@@H](C)CN(CC1CCCC1)[C@@H](C)CO2
17[16.7 µM] | CNC[C@@H]1OCCCC[C@H](C)Oc2ccc(NC(=O)NC(C)C)cc2C(=O)N([C@H](C)CO)C[C@H]1C
-4[16.7 µM] | CO[C@H]1CN(C)C(=O)c2cc(NS(=O)(=O)CC(F)(F)F)ccc2OC[C@@H](C)N(C(=O)NC(C)C)C[C@@H]1C
-3[16.7 µM] | CO[C@@H]1CN(C)C(=O)c2ccc(NC(=O)C3CCOCC3)cc2OC[C@H](C)N(C)C[C@@H]1C
9 | COC(=O)c1cc2c(c3c4cc(C)ccc4n(C(=O)c4ccccc4)c13)C(=O)N(Cc1ccccc1)C2
18[16.7 µM] | C[C@H](CO)N1C[C@H](C)[C@@H](CN(C)S(=O)(=O)c2ccc(Cl)cc2)Oc2ccc(NC(=O)Nc3ccc(C(F)(F)F)cc3)cc2CC1=O
? | CN1C(=O)c2cc(NS(C)(=O)=O)ccc2OC[C@H]2O[C@H](CC(=O)N3CCOCC3)CC[C@@H]21
6[16.7 µM] | O=C(C[C@@H]1CC[C@@H](NC(=O)CCN2CCCCC2)[C@@H](CO)O1)Nc1nccs1
-11 | O=C(Cc1cn(Cc2ccccc2)c2ccccc12)Nc1ccc(Nc2cccnc2)cc1
-8[16.7 µM] | CC(C)NC(=O)Nc1ccc2c(c1)C(=O)N([C@H](C)CO)C[C@@H](C)[C@@H](CN(C)C(=O)C1CCCCC1)OCCCC[C@H](C)O2
-11 | CCOC(=O)C1CSCCS(=O)(=O)N1Cc1cc(F)ccc1Br (stereo unspecified)
-8[16.7 µM] | CN(C)CC(=O)Nc1ccc2c(c1)[C@H]1C[C@H](CC(=O)NCc3cc(F)ccc3F)O[C@H](CO)[C@H]1O2
7[16.7 µM] | C[C@@H](NC(=O)[C@H]1[C@H](CO)[C@H]2Cn3c(cccc3=O)[C@H]2N1S(C)(=O)=O)c1ccccc1
2[16.7 µM] | O=C(C[C@@H]1CC[C@H]2[C@@H](COC[C@@H](O)CN2C(=O)c2ccncc2)O1)NC1CCC1
-1[16.7 µM] | C[C@H]1CN([C@@H](C)CO)C(=O)Cc2cc(NS(=O)(=O)c3ccccc3)ccc2O[C@H]1CN(C)Cc1ccc(Cl)c(Cl)c1
-11[16.7 µM] | CNC[C@@H]1OCCCC[C@@H](C)Oc2ccc(NC(=O)Nc3ccc(OC)cc3)cc2C(=O)N([C@H](C)CO)C[C@@H]1C
10 | COC(=O)C1=C(C)N(Cc2ccccc2)C(=S)NC1c1cccc(Br)c1 (stereo unspecified)
7[16.7 µM] | CC(C)NC(=O)Nc1ccc2c(c1)CC(=O)N([C@H](C)CO)C[C@H](C)[C@H](CN(C)C)O2
-27[16.7 µM] | Cc1noc(C)c1NC(=O)Nc1ccc2c(c1)C(=O)N([C@H](C)CO)C[C@H](C)[C@@H](CN(C)S(=O)(=O)c1ccc(Cl)cc1)OCCCC[C@H](C)O2
14 | Cc1nc2c(c(=O)c3ccccc3n2C)c(=O)n1C1CCCC1
1[16.7 µM] | C[C@@H]1CN([C@@H](C)CO)C(=O)Cc2cc(N(C)C)ccc2O[C@@H]1CN(C)S(=O)(=O)c1ccccc1
30 | COC(=O)C1=C(C)N(Cc2cccc(C(F)(F)F)c2)C(=NCc2ccc(OC)cc2)NC1c1cccc(Cl)c1 (stereo unspecified)
-17[16.7 µM] | CC(C)NC(=O)Nc1ccc2c(c1)C(=O)N(C)[C@@H]1CC[C@@H](CC(=O)NCc3ccc(F)cc3)O[C@@H]1CO2
6[16.7 µM] | O=C(C[C@@H]1C[C@H]2c3cc(NC(=O)C4CCC4)ccc3O[C@H]2[C@H](CO)O1)NCCc1ccccc1
-32[16.7 µM] | C[C@@H]1CN([C@@H](C)CO)C(=O)c2ccccc2-c2ccccc2CO[C@H]1CN(C)C(=O)Nc1ccc2c(c1)OCO2
-7[16.7 µM] | CO[C@@H]1CC[C@H]2CCN(C)C(=O)CCCN(C)C(=O)c3cc(C#N)ccc3OC[C@@H]1O2
1[16.7 µM] | COc1ccc(NC(=O)Nc2ccc3c(c2)C(=O)N([C@H](C)CO)C[C@H](C)[C@@H](CN(C)CC2CC2)OCCCC[C@H](C)O3)cc1
5[16.7 µM] | CN(C)C(=O)C[C@@H]1CC[C@H]2[C@H](COc3ccc(NC(=O)c4ccc(F)cc4)cc3C(=O)N2C)O1
0[16.7 µM] | O=C(NC[C@H]1CC[C@H]2[C@H](CN2Cc2ccc(Oc3ccccc3)cc2)O1)C1CCOCC1
-33 | COCCCNC(=O)C[C@H]1C[C@@]2(C(=O)OC)C(=C[C@H](COCc3ccccc3)O[C@@H]2C)N(CCC2=CCCCC2)C1=O
-4[16.7 µM] | COCC(=O)Nc1ccc2c(c1)[C@@H]1C[C@@H](CC(=O)N[C@@H](C)c3ccccc3)O[C@H](CO)[C@@H]1O2
-61[16.7 µM] | CC(C)NC(=O)Nc1ccc2c(c1)C(=O)N([C@@H](C)CO)C[C@@H](C)[C@H](CN(C)C(=O)Cc1ccccc1)OCCCC[C@H](C)O2
35[16.7 µM] | CN1C(=O)c2cc(NC(=O)c3ccc(C(F)(F)F)cc3)ccc2OC[C@H]2O[C@@H](CC(=O)NC3Cc4ccccc4C3)CC[C@H]21
-24[16.7 µM] | C[C@H](CO)N1C[C@H](C)[C@H](CN(C)C(=O)Nc2ccc(F)cc2)Oc2cc(-c3ccc(F)cc3)ccc2S1(=O)=O
-1[16.7 µM] | C[C@H]1CN([C@@H](C)CO)S(=O)(=O)c2ccc(C#Cc3cccnc3)cc2O[C@H]1CN(C)CC1CC1
8[16.7 µM] | O=C(O)C[C@H]1CC[C@H](NC(=O)c2ccncc2)[C@@H](CO)O1
67*[16.7 µM] | O=C(Nc1cccc(F)c1)N[C@@H]1CC[C@H](CCNS(=O)(=O)c2cccc(Cl)c2)O[C@H]1CO
-6[16.7 µM] | C[C@H](NC(=O)N(C)C[C@@H]1OCc2ccccc2-c2ccccc2C(=O)N([C@@H](C)CO)C[C@@H]1C)c1ccccc1
-2[16.7 µM] | NC(=O)NCC#Cc1ccc2c(c1)[C@]1(C(=O)N2)[C@H](c2ccc(O)cc2)N2[C@H](c3ccccc3)[C@H](c3ccccc3)OC(=O)[C@H]2[C@@H]1C(N)=O
-103[16.7 µM] | C/C=C/c1ccc2c(c1)O[C@H](CN(C)C(=O)Cc1cccnc1)[C@@H](C)CN([C@@H](C)CO)S2(=O)=O
-25 | COC(=O)C1=C(C)N(Cc2ccccc2C(F)(F)F)C(=NCc2cc(OC)c(OC)c(OC)c2)NC1c1cccc(C(F)(F)F)c1 (stereo unspecified)
-14[16.7 µM] | C[C@@H]1CN([C@@H](C)CO)C(=O)CCCn2cc(nn2)CO[C@H]1CN(C)Cc1ccc2c(c1)OCCN2C
-9[16.7 µM] | CCCC(=O)Nc1ccc2c(c1)C(=O)N(C)[C@H]1CC[C@H](CC(=O)NCc3cccc(F)c3)O[C@H]1CO2
-19[16.7 µM] | CO[C@@H]1CC[C@H]2CCOc3c(C#N)cccc3C(=O)N(C)C[C@H](c3ccccc3)CC(=O)N(C)C[C@@H]1O2

A portion of the library; rates above refer to the full screens.
